Screening data as filed in PubChem BioAssay.
Rango release inh: inhibition of RanGTP-driven Rango-importin beta dissociation; O95149+P62826; Biochemical FRET Rango-importin beta, RanGTP-induced dissociation; Potency, µM (top dose mostly 46.1 µM), without a hit: at the top dose activity change, negative = inhibition; 0.071% of 340,000 active; AID 540253; active means falling FRET ratio curve, often poorly fitted, with flat reads before Ran was added; inconclusive means other falling curves, or compound fluorescence or quenching; inactive means flat or rising ratio curve;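 also: potency is read from the fitted curve at half-maximal effect; % of control where 0% means no effect; nearly all actives have a fitted effect of over 45% in size; -100% = wells without RanGTP and RCC1; the record marks most hits as doubtful in a second field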
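Rango (0.1 uM)–importin beta (0.25 uM) complex; RanGTP-RCC1 trigger; 45 min RT; CFP/YFP FRET read.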
GLA inh pH 4.5: alpha-galactosidase A (human) inhibition, pH 4.5; purified enzyme, 4-MU-alpha-Gal fluorescence, pH 4.5; P06280; AID 1467; 230,000 tested, under 10 active; activity change, negative = inhibition, % at 105 µM; inconclusive = small, poorly fitted or top-dose-only inhibition, or a rising curve; inactive = flat fitted curve, though single readings scatter; no compound was filed as active;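 also: 0% = full activity with enzyme and -100% = basal without enzyme; dose as in the result columns while the protocol names 77 µM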
Rango complex inh: Rango-importin beta binding inhibition; 0.031% of 340,000 active; Rango CFP/YFP FRET sensor + importin beta, 45 min; AID 540263; Potency, µM (titrated, usually from 92.2 µM), for inactives: at the top dose inhibition of complex formation; active = rising FRET ratio curve, often small or poorly fitted; inconclusive = mostly compound fluorescence or quenching in the first reads; inactive = flat curves in all reads;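 also: potency is read from the fitted curve at half-maximal effect; 0% = DMSO wells and 100% = buffer wells lacking importin beta; nearly all actives have a fitted effect of over 15% in size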
Target sequence (Q14974 whole entry, looked up): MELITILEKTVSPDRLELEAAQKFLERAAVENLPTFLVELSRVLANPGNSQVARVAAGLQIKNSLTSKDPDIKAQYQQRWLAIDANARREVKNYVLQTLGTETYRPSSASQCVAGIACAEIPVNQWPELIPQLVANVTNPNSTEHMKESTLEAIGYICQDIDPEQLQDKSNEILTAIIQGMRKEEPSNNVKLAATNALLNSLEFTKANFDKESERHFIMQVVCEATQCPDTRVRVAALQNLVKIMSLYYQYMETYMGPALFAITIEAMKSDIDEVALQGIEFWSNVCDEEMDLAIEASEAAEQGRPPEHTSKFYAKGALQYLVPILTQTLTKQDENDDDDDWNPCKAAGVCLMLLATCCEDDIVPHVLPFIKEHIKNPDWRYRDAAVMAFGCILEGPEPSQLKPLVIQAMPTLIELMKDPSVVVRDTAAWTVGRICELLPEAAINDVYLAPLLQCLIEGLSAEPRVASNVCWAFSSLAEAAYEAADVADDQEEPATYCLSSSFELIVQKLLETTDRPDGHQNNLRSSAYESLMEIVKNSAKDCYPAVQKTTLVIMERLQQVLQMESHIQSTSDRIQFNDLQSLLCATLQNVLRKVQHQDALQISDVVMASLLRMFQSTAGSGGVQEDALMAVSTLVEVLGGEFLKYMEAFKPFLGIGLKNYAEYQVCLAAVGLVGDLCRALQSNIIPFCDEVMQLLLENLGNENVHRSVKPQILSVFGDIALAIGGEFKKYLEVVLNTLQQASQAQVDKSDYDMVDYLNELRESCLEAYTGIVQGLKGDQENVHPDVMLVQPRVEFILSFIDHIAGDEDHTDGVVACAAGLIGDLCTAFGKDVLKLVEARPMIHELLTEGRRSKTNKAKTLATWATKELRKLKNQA
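Inhibition scored from the CFP 486 nm/YFP 530 nm FRET ratio 45 min after adding 0.125 microM importin beta to 50 nM Rango biosensor preincubated 5 min with compound (room temperature, PBS with DTT, Tween-20, BSA). No-importin wells as positive control.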
miR-21 FLuc: raises the signal of a miR-21 reporter; AID 2288; Potency, µM (titrated, usually from 38.3 µM), inactives show at the top dose reporter change, positive = more light; 340,000 tested, under 10 active; HeLa miR-21 FLuc reporter, luciferase, 48 h; active = well fitted rising curve with a large enough effect; inconclusive = small, poorly fitted or top-dose-only effect; inactive = no such curve, though single readings can be large or run the other way;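 also: % of control where 0% means no effect; miR-21 action dims this reporter so a rising signal means less miR-21 action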
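Luminescence from a firefly luciferase reporter carrying a miR-21 binding site downstream, stably expressed under a CMV promoter in HeLa cells that make miR-21 endogenously, reports miRNA modulation after 48 h compound exposure up to approximately 40uM final.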
Active calls of the source: *; u = inconclusive; x = not tested or not shown; & = joins results of further samples. These rows are one share of the data (hit frequency here may not be typical).

Fields – Rango release inh, GLA inh pH 4.5, Rango complex inh, miR-21 FLuc
C[C@]12CCC(=O)C=C1CC[C@@H]1[C@@H]2CC[C@@]2(C)[C@H]1CC[C@]2(C)O
 : -5%, -5&-2, -3.1%, 8%
Cc1ccc(-n2c(O)c(C=N)c(=O)n(-c3ccc(C)cc3)c2=O)cc1
 : 52%, 8, -2.2%, 3%
Cc1nccc2c1[nH]c1ccc(Br)cc12
 : -3%, x, -2.2%, x
c1ccc2sc(N3CCNCC3)nc2c1
 : -3%, -5, -1.4%, -15%
Cc1cc(/C=C2\C(=O)NC(=O)N(c3ccc(F)cc3)C2=O)c(C)n1-c1cccc(C(=O)O)c1
 : -10%, 2, u, -1%
CN1C(=O)C(=Cc2sc(=O)n(-c3ccccc3)c2N(C)C)C(=O)N(C)C1=O
 : u, -3, u, 12%
N#Cc1ccc(NC(=O)CN2CCCC2)cc1Cl
 : -4%, 6, 3.7%, -2%
CCC1(C)OC(c2ccccc2)=C/C(=C/C=C2C(=O)NC(=O)NC2=O)O1 (stereo not drawn)
 : u, 2, u, -1%
CCC(=O)Nc1cc(C(=O)N2CCC3(CC2)OCCO3)ccc1S(=O)(=O)c1ccc(C)cc1
 : 13%, -9, 3.4%, -1%
CCOC(=O)c1ccc(NC(=O)c2c(O)[nH]c(=O)[nH]c2=O)cc1
 : 2%, 0, 2.5%, -2%
Fc1ccccc1N1CCN(Cc2c(F)cccc2F)CC1
 : -8%, -6, 3.7%, -2%
CCC1CO/C(=C(\C(Cl)=C(Cl)Cl)[N+](=O)[O-])N1Cc1ccc(Cl)nc1 (stereo not drawn)
 : -14%, x, 3.1%, -4%
CC(C)CC1C(C#N)=C(N)Oc2c1c(=O)oc1ccccc21 (stereo not drawn)
 : -5%, 2, -6.0%, 0%
CN1CCN(Cc2c(F)cccc2Cl)CC1
 : -1%, x, -1.7%, -2%
Cc1cccnc1-n1c(C)nc2ccccc2c1=O
 : 6%, 8, 0.0%, -4%
Cc1ccccc1N(CC(=O)NC1CCCC1)C(=O)c1csnn1
 : -17%, 1, 5.5%, 0%
COC(=O)C1=C(c2ccc(F)cc2OCc2ccccc2)C[C@@H]2CC[C@H]1N2C(=O)NCCOc1ccccc1Cl
 : -6%, x, -2.0%, x
O=S(=O)(c1ccc(Cl)cc1)N1CCCCC1c1cccnc1 (stereo not drawn)
 : 30%, 0, 5.3%, -4%
Clc1ccc2c(c1)C(c1ccccc1Cl)=NCc1nnc(Br)n1-2
 : 3%, 8, -4.3%, 0%
CC(=O)NC(Cc1ccc(N(CCCl)CCCl)cc1)C(=O)NC(C(=O)O)C(C)C (stereo not drawn)
 : -17%, 8, 1.6%, -2%
N#Cc1ccc(NC(=O)CN2C(=O)NC3(CCCC3)C2=O)cc1Cl
 : 9%, x, 1.2%, 1%
CC[C@H]1C2C[C@H]3[C@@H]4N(C)c5ccccc5C45C[C@H](C2[C@H]5O)N3[C@@H]1O (stereo partly drawn)
 : -4%, x, -1.0%, x
Cc1nn(Cc2ccccc2Cl)c(Cl)c1C(=O)O
 : -5%, 2, 3.9%, -1%
CNCCc1ccc(OC)c(OC)c1
 : 3%, 5, 0.2%, 0%
O=[N+]([O-])c1ccc(OP(=O)(O)Oc2ccc([N+](=O)[O-])cc2)cc1
 : u, x, u, x
COc1ccccc1-n1c(/C=C/c2ccc(O)cc2)nc2ccccc2c1=O
 : u, x, u, 17%
Cc1cccc(NC(=O)[C@@H](NC(=O)N2C[C@H]3C[C@@H](C2)c2cccc(=O)n2C3)C(C)C)c1
 : 6%, x, -1.5%, 4%
COc1cc2c(cc1OC)-c1c(OC)c(OC)cc3c1[C@H](C2)[N+](C)(C)CC3
 : 31%, -5, 0.4%, -3%
COc1ccc(NC(=O)c2cn(CCC#N)nc2-c2ccc([N+](=O)[O-])cc2)cc1
 : 1%, -6, 0.2%, 4%
C=CCn1c(O)c(C(CC)=Nc2ccc(C(=O)O)cc2)c(=O)[nH]c1=O
 : -4%, -4, 2.0%, 4%
OCC1CN1C1CCCCC1 (stereo not drawn)
 : 1%, x, -0.4%, x
CN1Cc2cccnc2N(C)Cc2cc(Cl)ccc21
 : 9%, 0, -0.3%, 12%
CCOC(=O)C1(c2ccccc2)CCN(Cc2cccc(C(=O)O)c2)CC1
 : 1%, 2, -0.5%, -9%
CCCCCCn1c(O)c(C(C)=NC)c(=O)[nH]c1=O
 : 11%, -7, 0.7%, -10%
Clc1ccc(CCNCc2ccncc2)c(Cl)c1
 : 1%, x, -0.7%, -3%
CC1CCCCN1C(=O)Cn1cc(C=C2C(=O)N(C)C(=O)N(C)C2=O)c2ccccc21 (stereo not drawn)
 : 12%, x, u, 2%
CC(=NNC(=S)N1CC2CCC(CC2)C1)c1nccs1
 : u, x, u, x
Cc1cc(C)nc(NS(=O)(=O)c2ccc(N=Cc3c(O)n(C)c(=O)n(C)c3=O)cc2)n1
 : u, 5, u, 4%
COc1ccc(NP(=O)(Nc2ccc(OC)cc2)Oc2ccccc2)cc1
 : 5%, -3, 0.2%, 0%
c1ccc(C(OCCN2CCNCC2)c2ccccc2)cc1
 : 13%, 4, 3.0%, -9%
COC(=NC1CCCCC1)C(O)c1c[nH]c2ccccc12 (stereo not drawn)
 : -14%, 6, 1.3%, 0%
CC1=NN(c2ccccc2)C(=O)/C1=C/c1c(O)[nH]c(=S)[nH]c1=O
 : -29%, -2, 6.5%, -12%
C[N+](C)(C)Cc1ccccc1
 : 17%, 4, 0.0%, -10%
COCCn1c(SCc2ccccc2Cl)nc2c1c(=O)[nH]c(=O)n2C
 : 10%, 1, 0.7%, -38%
COc1ccccc1N1CCN(Cc2ccc(Br)cc2)CC1
 : 7%, x, 0.4%, 6%
Cc1ccc(N)cc1C
 : 0%, x, -3.0%, x
O=c1[nH]c(O)c(/C=C2/C=CC(c3cc(Cl)ccc3Cl)=N2)c(=O)[nH]1
 : u, -1, u, 4%
CN1C(=O)NC(=O)C2(CCCC2)C1=O
 : 4%, x, -0.6%, x
CSc1ncc(/C=C2/C(=O)NC(=O)N(c3ccc(C(C)C)cc3)C2=O)cn1
 : 0%, 2, u, 1%
O=C(CSCc1ccccc1)Nc1ccc2c(c1)OCO2
 : 11%, 4, -3.1%, -73%
Oc1cc2c(cc1O)[C@H]1c3ccccc3CN[C@@H]1CC2
 : x, 8, x, -2%
CCCn1c(C)c(C(=O)c2cccc3ccccc23)c2ccccc21
 : -5%, -1, -1.8%, x
Nc1ccc(C2(c3ccc(N)cc3)CN3CCC2CC3)cc1
 : -13%, 4, 3.3%, 1%
Cc1ccccc1C1=NCC(=S)Nc2ccc(Cl)cc21
 : 9%, 10, -3.2%, -2%
CCN1C[C@]2(COC)CC[C@H](OC)[C@@]34C5C[C@H]6C(=O)C5[C@](O)(C[C@H]6OC)[C@@](O)(C(OC)C23)[C@@H]14 (stereo partly drawn)
 : -3%, x, 0.0%, x
CCN1CC2(COC(=O)c3ccccc3N)CCC(OC)C34C5CC6C(OC)CC(O)(C5C6OC)C(O)(C(OC)C23)C14 (stereo not drawn)
 : 0%, 8, -2.2%, -5%
CC(Cc1ccccc1Sc1ccccc1O)N(C)C (stereo not drawn)
 : -5%, 9, 0.1%, 7%
O=C1COc2ccc(C(=O)COC(=O)Cc3ccccc3)cc2N1
 : -13%, x, -3.6%, x
CC#CP(=O)(OC)C(O)(CF)c1ccccc1 (stereo not drawn)
 : -14%, -8, 0.7%, -6%
N#Cc1ccc(NC(=O)CN2CCCCCC2)cc1Cl
 : 18%, x, -0.4%, -12%

One compound at a time, as listed above. Values in the order: Rango release inh	GLA inh pH 4.5	Rango complex inh	miR-21 FLuc
N#Cc1ccc(NC(=O)CN2CCCCCC2)cc1Cl across the screens: 18%	x	-0.4%	-12%
Oc1cc2c(cc1O)[C@H]1c3ccccc3CN[C@@H]1CC2 across the screens: x	8	x	-2%
Clc1ccc(CCNCc2ccncc2)c(Cl)c1 across the screens: 1%	x	-0.7%	-3%
CN1C(=O)NC(=O)C2(CCCC2)C1=O across the screens: 4%	x	-0.6%	x
O=C1COc2ccc(C(=O)COC(=O)Cc3ccccc3)cc2N1 across the screens: -13%	x	-3.6%	x

Other structures:
Fields – Rango release inh, GLA inh pH 4.5, Rango complex inh, miR-21 FLuc
Cc1cccc(-n2c(-c3ccco3)nc3ccccc3c2=O)c1C
 : 20%, 5, -1.4%, 10%
CN(C)/C=c1\sc2c(C#N)cc(C(=O)c3ccc(Br)cc3)n2c1=O
 : u, -3, u, -4%
COc1ccc(CN2C(=O)NC(=O)/C(=C/c3cc(OC)c(OC)c(OC)c3)C2=O)cc1
 : 9%, 2, 4.3%, 4%
CCn1c(=N)n(Cc2ccccc2F)c2ccccc21
 : -4%, 4, -0.2%, 5%
CN(C)c1ccc(/C=C/[N+](=O)[O-])cc1
 : 23%, 0, -1.5%, -1%
COc1ccc2c(c1)/C(=C/c1cnc[nH]1)C(=O)N2
 : 5%, -7, -1.8%, 24%
CC(C)C1(C)N=C(c2ncccc2C(=O)O)NC1=O (stereo not drawn)
 : -23%, 3, 2.8%, -1%
O=C1Nc2ccccc2/C1=C/c1cnc[nH]1
 : 7%, 1, -1.8%, -11%
Cc1cc(C=C2C(=O)N(C)C(=O)N(C)C2=O)c(C)n1-c1ccccc1
 : 20%, -3, -3.3%, -2%
COC(C)(C)CCCC(C)C/C=C/C(C)=C/C(=O)OC(C)C (stereo not drawn)
 : 7%, -2, 3.5%, x
COc1ccc(CCNCc2cccc(C(F)(F)F)c2)cc1OC
 : -22%, -5, -1.4%, -11%
CC1=CC(=C2C(=O)NC(=O)NC2=O)C=C(C(F)(F)F)N1Cc1ccccc1
 : 0%, 2, 1.1%, 17%
OC(CNC1CCCCCCC1)c1ccccc1 (stereo not drawn)
 : x, 0, x, -8%
COc1cc(/C=C2/C(=O)NC(=O)N(c3ccc(C)cc3)C2=O)cc(OC)c1OC
 : 1%, -10, -2.6%, -3%
Clc1ccc(N2CC2c2ccncc2)cc1 (stereo not drawn)
 : -4%, x, -1.0%, -5%
C=C1C(O)[C@@H]2O[C@]3(CC[C@H](/C=C/C(C)[C@@H]4CC(C)=CC5(O[C@H](C[C@@](C)(O)C(=O)O)CCC5O)O4)O3)CC[C@H]2O[C@@H]1C(O)CC(C)[C@H]1OC2(CCCCO2)CCC1C (stereo partly drawn)
 : -10%, x, 1.1%, x
O=[N+]([O-])c1ccc2c(c1)C(c1ccccc1)=NCCN2
 : -5%, x, -1.5%, 13%
N#CC(c1ccccc1)N1CCOCC1 (stereo not drawn)
 : 1%, -6, -1.5%, -1%
CCCN(CCC)C1Cc2cc(OC)c(OC)cc2C1
 : 21%, 1&1, 0.8%, x
CC1CCCN(C(=O)c2ccc(N3CC4CC(C3)c3cccc(=O)n3C4)c([N+](=O)[O-])c2)C1 (stereo not drawn)
 : 0%, 0, -4.6%, -11%
O=C(c1ccccc1)c1cn(CC(=O)N2CCCc3ccccc32)c2ccccc12
 : 1%, -8, 1.8%, 2%
Cc1ccc(-c2nc3ccc(C)cn3c2CC(=O)N(C)C)cc1
 : -1%, 7, 1.3%, x

2 records drawn at random from the list so far:
Fields – Rango release inh, GLA inh pH 4.5, Rango complex inh, miR-21 FLuc
CC(C)C1(C)N=C(c2ncccc2C(=O)O)NC1=O (stereo not drawn)
 : -23%, 3, 2.8%, -1%
CCCN(CCC)C1Cc2cc(OC)c(OC)cc2C1
 : 21%, 1&1, 0.8%, x

4 compounds from above, limited to Rango release inh and Rango complex inh:
SMILES | Rango release inh | Rango complex inh
COc1ccc2c(c1)/C(=C/c1cnc[nH]1)C(=O)N2 | 5% | -1.8%
CC(C)C1(C)N=C(c2ncccc2C(=O)O)NC1=O (stereo not drawn) | -23% | 2.8%
O=C1Nc2ccccc2/C1=C/c1cnc[nH]1 | 7% | -1.8%
Cc1cc(C=C2C(=O)N(C)C(=O)N(C)C2=O)c(C)n1-c1ccccc1 | 20% | -3.3%
